Vaccinia mCherry: vaccinia inhibition (mCherry reporter) | Potency, µM (highest dose often 36.5 µM), without a hit: at the top dose activity change, negative = inhibition, hits mostly inhibitors | Vaccinia virus mCherry reporter infection, fluorescence; about a quarter of the inactives have no number | 0.63% of 310,000 active; active = well fitted inhibition curve with a large enough effect; inconclusive = small, poorly fitted or top-dose-only effect; inactive = no such curve, though single readings can be large or run the other way; tested in A549 cells; note: nearly all actives have a fitted effect of over 35% in size; inactives centre near -10
VACV Venus inh: inhibitors of vaccinia virus (Venus reporter). 0.46% of 330,000 active. Vaccinia virus Venus reporter expression, fluorescence. Potency, µM (titrated, usually from 36.5 µM), for inactives: at the highest dose activity change, negative = inhibition, hits mostly inhibitors. AID 720580; active means well fitted inhibition curve with a large enough effect; inconclusive means small, poorly fitted or top-dose-only effect; inactive means no such curve, though single readings can be large or run the other way; tested in A549 cells; note: nearly all actives have a fitted effect of over 30% in size; inactives centre near -10
* hit, by the source's call; i = inactive; u = inconclusive; x = not tested or not shown; & = joins results of further samples; [ ] = another dose, or the depositor's remark. % is set by controls: 0 for no effect and ±100 for the full control effect; potency is the fitted concentration of half-maximal effect.

Fields: VACV Venus inh, Vaccinia mCherry
- Cc1ccc(S(=O)(=O)N2CCN(c3nc(-c4ccc(CN5CCOCC5)s4)nc4ccccc34)CC2)cc1
    -12%, -1%
- c1ccc2cc(OCCOCCOc3ccc4ccccc4c3)ccc2c1
    -3%, i
- COc1ccc(Cl)cc1-c1cc(C(=O)NCC2CCCCC2)[nH]n1
    -9%, 3%
- CC(C)(C)c1ccc(C(=O)Nc2cccc3ncccc23)cc1
    -8%, i
- COc1ccccc1CNc1cc(C)nc2nc(-c3ccc(C)cc3)nn12
    32%[activator], -22%
- Cc1ccc([N+](=O)[O-])cc1N=C(c1cccc([N+](=O)[O-])c1)N1CCOCC1
    -12%, -2%
- COc1cccc(C(=O)Nc2cccc(OCc3cc(=O)n4cc(C)ccc4n3)c2)c1
    -17%, i
- Cc1c(C(=O)N(C)C)sc2c1c(=O)n(-c1ccc(F)cc1)c(=O)n2Cc1cc(=O)n2ccccc2n1
    -5%, -8%
- Cc1nnc(SCC(=O)NC2CCCC2)n1C(C)C
    1%, -11%
- CCCOc1ccc(Oc2nc(NCC(C)C)nc(N(C)C)n2)nn1
    -13%, -20%
- C=CCn1c(SCC(=O)NC)nc2sc3c(c2c1=O)CCC3
    -22%, 17%
- COc1cc(OC)cc(C(=O)N2CCN(Cc3ccccc3[N+](=O)[O-])CC2)c1
    -4%, -7%
- COc1ccc(NC(=O)CCC(=O)c2ccc(F)cc2)cc1
    -12%, -23%
- CC/C(=N\O)c1ccc(O)c(OC)c1
    -12%, -21%
- COc1cc2c(cc1OC)CN(C(=O)c1cccs1)CC2
    -4%, -15%
- Cc1oc(-c2cccc(Cl)c2)nc1CS(=O)(=O)CC(=O)NCCN1CCCC1
    -3%, 0%
- CCCCCC(=O)N1C[C@@H](n2cc(C3CC3)nn2)[C@H](O)C[C@@H]1c1ccccc1
    1%, i
- CCOc1ccccc1CN1CCN(C2CCN(c3ccccc3F)CC2)CC1CCO (stereo not drawn)
    -16%, -13%
- COc1ccc(CCNC(=O)CCC(=O)N2CCOc3ccc(Cl)cc32)cc1OC
    -10%, u
- CCCn1c(N)c(N(CCOC)C(=O)c2cccc(Cl)c2)c(=O)[nH]c1=O
    -11%, i
- OCCCCNc1cccc2ccccc12
    0%, -7%
- Cc1cc(C)nc(Nc2n[nH]c(-c3ccc(C(C)(C)C)cc3)n2)n1
    -9%, -17%
- COc1ccc(N(CC(=O)N/N=C/c2cccnc2)S(=O)(=O)c2ccc(C)cc2)cc1OC
    -7%, -15%
- Cc1cc2c(C)nc(-c3ccccc3)nc2o1
    -8%, -21%
- CCCNC(=O)c1cc2c(c(-c3cccc(-c4cc5ccccc5o4)c3)n1)[C@H](CCO)N(C(=O)NC(C)C)C2
    u, u
- Cc1ccc(-c2cn(CCN)c(-c3ccncc3)n2)cc1
    -12%, i
- NNC(=O)Cn1c(SCc2ccccc2)nc2ccccc21
    -8%&-3%, 8%
- CC(=O)NCCC(=O)Nc1ccc(C(N)=O)cc1
    5%, 2%
- Brc1ccc(/C=C2\C=Cc3ccccc32)cc1
    11%, -2%
- COc1ccc(Nc2ccc([N+](=O)[O-])cc2[N+](=O)[O-])cc1
    -17%, -4%

Reprinted from the part before: 2 entries; new compounds follow.
Fields: VACV Venus inh, Vaccinia mCherry
- Brc1ccc(/C=C2\C=Cc3ccccc32)cc1
    11%, -2%
- COc1ccc(Nc2ccc([N+](=O)[O-])cc2[N+](=O)[O-])cc1
    -17%, -4%
- COc1ccc(NC(=O)CSc2nnc(Cc3ccc(C)cc3)c(=O)n2N)cc1OC
    -25%, -28%
- CCCCn1c(CCNC(=O)CC)nc2ccccc21
    5%, i
- Cn1c(O)c(C=Nc2ccc(Br)cc2)c(=O)n(C)c1=O
    -4%, -14%
- S=C(NC1CCCCC1)N1CCN(C/C=C/c2ccccc2)CC1
    -20%, -26%
- COC(=O)CCc1c(C)c(C#N)c2nc3ccccc3n2c1N1CCCC1
    -6%, -5%
- CC1CCCC(NC(=O)CSc2n[nH]c(=O)n2Cc2ccccc2)C1C (stereo not drawn)
    -15%, -1%
- COc1ccc(C)cc1S(=O)(=O)Nc1cccc(-c2cn3cccnc3n2)c1
    -19%, -10%
- COc1ccc(N2CCN(C(=O)CCNS(=O)(=O)c3cccs3)CC2)cc1
    13µM*, u
- C[C@H]1CC[C@@]2(O[C@@H](CCO)C[C@H](O)[C@H]2O)O1
    -3%, i
- N#Cc1c(C(F)(F)F)cc(-c2cccs2)nc1SCc1ccccc1F
    -2%, -12%
- NS(=O)(=O)c1ccc(CCNc2ncnc3c2c(-c2ccccc2)cn3-c2ccc(F)cc2)cc1
    u, x
- Cc1nnc2sc(-c3cccc(F)c3)nn2c1=O
    7%, i
- CC(Sc1nnnn1C1CCCC1)C(=O)Nc1cccc(S(=O)(=O)N2CCOCC2)c1 (stereo not drawn)
    -13%, i
- CCCCCC(=O)N1CC2(CC(c3cccc(NC(=O)CC(c4ccccc4)c4ccccc4)c3)=NO2)C[C@@H]1C(N)=O (stereo partly drawn)
    u, -29%
- COc1ccc(C(=S)Nc2ccc(N(C)C)cc2)cc1
    -11%, -1%
- COc1ccc(C(=S)N2CCN(c3cccc(Cl)c3)CC2)cc1
    -10%, i
- CC(N)Cc1c[nH]c2ccc(O)cc12 (stereo not drawn)
    -9%&-12%, -11%
- CCn1c(C)c(C)c2cc(C(=O)NCCCN3CCCCC3C)ccc21 (stereo not drawn)
    -17%, -21%
- Cc1ccc(NS(=O)(=O)c2cc(C(=O)Nc3cccnc3)ccc2C)cc1
    -12%, -4%
- Cc1c(C(=O)C(=O)N2CCCc3ccccc32)c2ccccc2n1C
    -21%, -8%
- CCOC(=O)c1ccccc1NC(=O)NCc1cccn1Cc1ccc(F)cc1
    u, -18%
- COc1ccccc1-c1cc(C(=O)NCCc2ccccc2)no1
    -20%&-24%, u
- C=CCNC(=S)NC(CC(=O)OC)c1ccc2c(c1)OCO2 (stereo not drawn)
    1%, u
- CCOC(=O)C1=C(N)N2C(=O)C(C)SC2=C(C(=O)OC)C1c1ccccc1OC (stereo not drawn)
    -24%, x
- O=c1c(=O)n(-c2ccc(F)c(F)c2)ccn1Cc1ccc(F)cc1Cl
    -5%, -3%
- COCCOC(=O)/C(C#N)=C/c1cn(Cc2ccccc2)nc1-c1cccnc1
    -17%, -4%
- Cc1cc(NC(=O)CSCC(=O)Nc2nc3ccccc3[nH]2)no1
    18%, 9%
- O=C(NC(=S)Nc1cccnc1)c1cccc(Br)c1
    11%, -11%
- CCOC(=O)C1(Cc2ccc(OC)cc2)CCN(C(=O)CN2CCCCC2=O)CC1
    -6%, i
- O=C(O)C1CCCCC1C(=O)Nc1ccc2c(c1)OCCO2 (stereo not drawn)
    1%, -4%

Profiles, quoted from the list. Order of screens: VACV Venus inh | Vaccinia mCherry
O=C(O)C1CCCCC1C(=O)Nc1ccc2c(c1)OCCO2 (stereo not drawn) across the screens: 1% | -4%
CCOC(=O)C1(Cc2ccc(OC)cc2)CCN(C(=O)CN2CCCCC2=O)CC1 across the screens: -6% | i
Cc1c(C(=O)C(=O)N2CCCc3ccccc32)c2ccccc2n1C across the screens: -21% | -8%
CCCCn1c(CCNC(=O)CC)nc2ccccc21 across the screens: 5% | i
Cn1c(O)c(C=Nc2ccc(Br)cc2)c(=O)n(C)c1=O across the screens: -4% | -14%

Next results:
Fields: VACV Venus inh, Vaccinia mCherry
- CCOC(=O)C1=C(CN2CCN(c3ccc(F)cc3)CC2)NC(=O)NC1c1cccs1 (stereo not drawn)
    -23%, -16%
- CCC1Oc2ccc(C)cc2N(CC(=O)NCCCN2CCCC2)C1=O (stereo not drawn)
    -8%, -13%
- CCOC(=O)C1(CC)NC(c2ccc(OC)cc2OC)C2C(=O)N(C)C(=O)C21 (stereo not drawn)
    -6%, -14%
- Cc1cc2nn(-c3ccc(Cl)cc3)nc2cc1NC(=O)C(C)C
    -1%, -8%
- CCCN1C(=O)/C(=C/c2ccc(C)o2)SC1=Nc1ccc(OC)cc1
    -1%, x
- CO/N=C/c1c(-c2ccc(Cl)cc2)nc2cc(C)ccn12
    -17%, -22%
- O=c1[nH]c(=S)n(C2CC2)c(O)c1C=Nc1cccc(C(F)(F)F)c1
    -3%, i
- Cc1cccc(-n2c(SCC(=O)N3CCC(C(=O)O)CC3)nc3ccccc3c2=O)c1C
    -21%, i
- Cc1cc(C)nc(NS(=O)(=O)c2ccc(NC(=S)NC(=O)c3cccnc3)cc2)n1
    2%, -7%
- O=C(COC(=O)c1ccccc1)Nc1ccc2[nH]c(=O)[nH]c2c1
    6%, -26%
- CN(CC(=O)NCCc1ccc(S(N)(=O)=O)cc1)Cc1c(F)cccc1Cl
    -1%, 0%
- O=Cc1ccc(Cl)cc1
    -15%, -1%
- O=C(CSc1nc(-c2ccc(F)cc2)cc(C(F)(F)F)n1)NCc1ccccc1
    -17%, u
- S=c1[nH]nc(-c2cccnc2)n1-c1ccccc1
    -14%, -8%
- Cc1cccc(-c2nc3c4ccccc4nc(NCc4ccccc4Cl)n3n2)c1
    -8%, i
- COc1cc(C(=O)N/N=C2\CCS(=O)(=O)c3ccc(F)cc32)cc(OC)c1OC
    -11%, -21%
- CC1(C)OC2CC3C4CCC5=CC(=O)C=C[C@@]5(C)[C@]4(F)C(O)C[C@@]3(C)[C@]2(C(=O)CO)O1 (stereo partly drawn)
    -8%, -16%
- Nc1ccn([C@@H]2O[C@H](C(=O)N[C@H](CO)Cc3ccccc3)[C@@H](O)[C@H]2O)c(=O)n1
    2%, 32%[activator]
- CC(NC(=O)CSc1nc(C2CC2)n(-c2ccccc2)n1)c1ccco1 (stereo not drawn)
    -6%, -8%
- CCOC(=O)C1=C(C)NC2=C(C(=O)CC(C)(C)C2)C1c1ccsc1 (stereo not drawn)
    -16%, -6%
- Cc1ccc(-c2cc(C(=O)N/N=C/c3ccco3)n[nH]2)s1
    -5%, i
- NC(=O)C1CCN(c2csc3ccc(F)cc3c2=O)CC1
    -15%, -10%
- O=C(CN1CCN(CC(=O)c2ccccc2)CC1)c1ccccc1
    -16%, -29%
- CC12CN3CC(C)(CN(C1)C3c1ccco1)C2=O (stereo not drawn)
    -1%, -9%
- CCn1c(C)[n+](CC(O)COCC2CC=CCC2)c2ccccc21 (stereo not drawn)
    -11%, -17%
- O=C(c1[nH]ncc1-c1ccccc1)C1CO1 (stereo not drawn)
    -2%[7.34 µM], -6%[7.34 µM]
- COc1ccc(Nc2nc(N)nc(CSC(=S)N3CCCCC3C)n2)cc1 (stereo not drawn)
    u, -21%
- CCOc1ccc(N2CC(C(=O)N3CCCc4ccccc43)CC2=O)cc1 (stereo not drawn)
    -8%, i
- Cc1sc2c(c1C)c(=O)n(-c1ccc(Cl)cc1)c(=O)n2Cc1c(F)cccc1Cl
    -9%, -14%
- CC(C)(C)C(=O)N1CCN(c2ccc([N+](=O)[O-])c(-n3nc(-c4ccccc4)c4ccccc4c3=O)c2)CC1
    -17%, -24%
- COc1cc(NC(=O)Cn2cnc3c(NCc4ccccc4)ncnc32)cc(OC)c1OC
    0%, -8%
- Cc1cccc(C)c1NC(=O)CNC(=O)C(C)NC(C)c1ccccc1Br (stereo not drawn)
    -11%, -20%
- O=C(Nc1c2c(nc3ccccc13)CCCC2)c1cccc([N+](=O)[O-])c1
    -9%, -3%
- CCc1ccc(N2C(=O)c3ccc4c5c(ccc(c35)C2=O)CC4)cc1
    -20%, -8%
- Cc1noc(C)c1CSCC(=O)NCCN1C(=O)S/C(=C\c2ccccc2F)C1=O
    -22%, -10%
- CC(C)c1ccc(-c2csc(NC(=O)c3cccs3)c2C(=O)O)cc1
    2%[7.34 µM], -3%[7.34 µM]
- O=C(CSc1n[nH]c(-c2cc(Cl)ccc2Cl)n1)NCCN1C(=O)CSC1=O
    u, -16%
- CC(NC(=O)COC(=O)/C=C/c1ccc(Cl)cc1)c1ccccc1 (stereo not drawn)
    -9%, i
- N#CCSc1ncnc2c1cnn2CCO
    u, x
- Cc1cc(-c2ccc(C)c(S(=O)(=O)NC3CCCCC3)c2)on1
    -20%, -13%
- CCC1(C)Cc2c(sc3c2c(=O)n(C)c2nnc(SCCc4ccccc4)n32)CO1 (stereo not drawn)
    -13%, x
- CC(=O)C(Sc1ncnc2sc3c(c12)CCCC3)C(C)=O
    -14%, i
- Cc1cc(C)c2oc(C(=O)Nc3c(C(=O)c4ccccc4)oc4ccccc34)cc(=O)c2c1
    7%, 4%
- O=c1[nH][nH]c(-c2ccccc2)c1C=Nc1ccccc1
    -1%, -14%
- Cc1ccccc1NC(=S)NNC(=O)c1cccnc1
    -6%, -15%
- CCOP(=O)(c1ccccc1)C(O)c1ccccc1 (stereo not drawn)
    -7%, i
- CCOC(=O)C1=C(C)N(C)C(=O)NC1c1ccc(C)s1 (stereo not drawn)
    0%, -9%
- O=c1cc(CSc2nnc(COc3ccccc3Cl)o2)nc2sccn12
    -16%, -13%
- CCOC(=O)Cn1c(=O)oc2cc(S(=O)(=O)N3CCN(c4cccc(C)c4)C(C)C3)ccc21 (stereo not drawn)
    -8%, -10%
- Brc1cccc2sc(N3CCCC3)nc12
    -3%, i
- O=C(NCCCN1CCOCC1)c1ccc(CNS(=O)(=O)c2ccc(Br)cc2)cc1
    -9%, -17%
- Cc1cccc(N2CCN(c3ccc(N4C(=O)CCCC4=O)cc3[N+](=O)[O-])CC2)c1C
    -3%, -11%
